VDR inhibitor – Inhibitors of the vitamin D receptor (VDR): qHTS; Vitamin D3 receptor (Homo sapiens), P11473; VDR-SRC2-3 peptide fluorescence polarization, 2 h; Potency, µM, for inactives: max response, negative = inhibition, hits mostly inhibitors; actives 0.93% (n = 400,000); AID 504847, 2011; active = well fitted inhibition curve with a large enough effect; inconclusive = small, poorly fitted or top-dose-only effect, or another doubt; inactive = no such curve, though single readings can be large or run the other way; note: series mostly up to about 120 µM
Target sequence (P11473 whole entry, looked up): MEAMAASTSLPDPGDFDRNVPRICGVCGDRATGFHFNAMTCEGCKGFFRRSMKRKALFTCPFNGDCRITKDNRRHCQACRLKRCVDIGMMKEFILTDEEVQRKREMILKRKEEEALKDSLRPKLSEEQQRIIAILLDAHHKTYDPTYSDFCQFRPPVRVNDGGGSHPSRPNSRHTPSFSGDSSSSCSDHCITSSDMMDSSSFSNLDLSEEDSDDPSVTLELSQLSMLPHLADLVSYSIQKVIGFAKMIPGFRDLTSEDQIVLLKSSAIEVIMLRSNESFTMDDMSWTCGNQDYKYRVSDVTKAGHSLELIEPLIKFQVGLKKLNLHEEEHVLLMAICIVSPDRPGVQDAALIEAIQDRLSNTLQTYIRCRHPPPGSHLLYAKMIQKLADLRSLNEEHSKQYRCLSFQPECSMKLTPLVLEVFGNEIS
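Compounds are added to VDR with labelled SRC2-3 coactivator peptide and held 2 h at room temperature. Inhibition of the VDR–peptide interaction is then read as a change in fluorescence polarization.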
Active calls of the source: *; ? = inconclusive; & = joins results of further samples. % is set by controls: 0 for no effect and ±100 for the full control effect; potency is the fitted concentration of half-maximal effect. An excerpt (hit frequency here may not be typical).

nr	VDR inhibitor	mol
1	-7%	Cc1c(Cl)cccc1NC(=O)C1Cc2ccccc2CN1C(=O)c1ccccc1 (stereo not drawn)
2	-6%	COc1cccc(Cn2c(CNS(=O)(=O)c3ccc(Cl)s3)nc3cccnc32)c1
3	-1%	Clc1ccccc1CSc1nnc(-c2ccncc2)o1
4	-15%	CCC(C)NC(=O)C1CCC(=O)N(c2cc(OC)c(OC)c(OC)c2)C1c1ccc(OC)cc1 (stereo not drawn)
5	?	COc1ccccc1CC(=O)N(CCC1=CCCCC1)c1c(N)n(Cc2ccccc2)c(=O)[nH]c1=O
6	15%	CCOc1ccc(S(=O)(=O)N2CCCCC2)cc1NC(=O)Cc1ccsc1
7	-11%	Cc1cccc(Nc2cc(=O)n(C)c(=O)[nH]2)c1
8	-2%	COc1cc2ccccc2ccc1=NO

Results in sequence from the list:
VDR inhibitor, entries 4 to 8: -15%, ?, 15%, -11%, -2%

Further results
nr	VDR inhibitor	mol
9	13%	O=C(O)c1cccc(NC(=O)c2cn(-c3ccccc3)nc2-c2ccc(F)cc2)c1
10	-9%	Cc1ccc(Nc2nc3c([nH]2)c(=O)n(C)c(=O)n3C)cc1
11	-2%	N#Cc1ccc(COn2nnc3ccccc32)cc1
12	-4%	COc1ccc(/C=C/C(=O)NC(CCSC)C(=O)O)cc1 (stereo not drawn)
13	-14%	CCn1cc(C2N3CC4(C)CN2CC(C)(C3)C4=O)c2ccccc21 (stereo not drawn)
14	-10%	Cc1ccccc1NC(=O)CCN1CCCC1
15	2%	Cn1cnc([N+](=O)[O-])c1SCCO
16	6%	Cc1cc(NC(=O)c2ccc(Cl)c(S(=O)(=O)N3CCOCC3)c2)no1
17	3%	CCOc1ncccc1C(=O)Nc1ccc(Cl)c(S(=O)(=O)N2CCCC2)c1
18	12%	O=C(c1ccc(S(=O)(=O)Nc2ccccc2Cl)cc1)N1CCCC1
19	-14%	CC(NC(=O)c1ccco1)C1COc2ccccc2O1 (stereo not drawn)
20	15%	Cn1c(=O)c2c(nc(CN3CCN(C(=O)c4ccco4)CC3)n2CC(=O)C(C)(C)C)n(C)c1=O
21	19%	CCCC(=O)N1c2ccccc2-c2nnc(SC)nc2OC1c1sccc1C (stereo not drawn)
22	-9%	CC1CCCC(C)N1C(=O)COC(=O)c1n[nH]c(=O)c2ccccc12 (stereo not drawn)
23	-19%	CCCc1nnc(NC(=O)CCC(=O)NC2CCCC2)s1
24	-7%	Cc1c(CCOC(=O)c2ccc([N+](=O)[O-])cc2)sc[n+]1CC(=O)c1ccccc1
25	-7%	Cc1cccc(NC(=O)C(=O)NCC(c2ccc3c(c2)OCO3)N2CCOCC2)c1C (stereo not drawn)
26	-15%	O=C(CCC(=O)Nc1ccc(Br)cc1)N/N=C/c1ccc(O)cc1
27	-12%	NC(=O)c1ccc(NC(=O)c2ccc(COc3ccc(F)cc3)o2)cc1
28	-3%	COc1ccccc1NC(=S)N(Cc1ccc(C)cc1)Cc1ccccn1
29	7%	CC1CCN(C(=O)COC(=O)CNC(=O)c2ccccc2F)CC1
30	9%	Cc1ccccc1C(=O)NC(=S)NC1CCS(=O)(=O)C1 (stereo not drawn)
31	-6%	CCC(C)/C(C)=N/NC(=O)c1ccc(COc2ccc(Cl)c(C)c2)cc1 (stereo not drawn)
32	-3%	Cc1ccc(NC(=O)CCS(=O)(=O)c2cccc3nonc23)c(Br)c1
33	-7%	COCCNc1ncnc2c1cnn2Cc1ccccc1Cl
34	3%	Cn1nc(-c2ccccc2)c(C(=O)Nc2ccc(Cl)cc2)c1Cl
35	-16%	O=C(c1cc2c(s1)CCCC2)N1CCN(S(=O)(=O)c2ccccc2)CC1
36	-6%	COc1ccc(-c2cc(C(=O)Nc3cc(S(=O)(=O)N4CCOCC4)ccc3N3CCOCC3)c3ccccc3n2)cc1
37	-14%	Cc1cc(NC(=O)c2ccc(F)cc2)no1
38	-16%	COP(=O)(OC)c1nc(-c2ccc(C)cc2)oc1N1CCCCC1
39	-5%	CC(=O)Nc1cccc(OCC(=O)Nc2ccc(F)cc2)c1
40	5%	COCCn1c(SCC(=O)Nc2ccc(S(N)(=O)=O)cc2)nc2ccccc21
41	17%	O=C(CSc1nnc2c(n1)[nH]c1ccc(S(=O)(=O)N3CCOCC3)cc12)Nc1ccc(F)c(F)c1
42	-20%	CCOC(=O)c1cnc2c(Cl)cc(Cl)cc2c1Nc1ccccc1OC
43	?	CSCSC1=C(C#N)C(c2ccccc2Cl)C(C(C)=O)=C(C)N1 (stereo not drawn)
44	4%	CSCCC(NC(C)=O)C(=O)Oc1ccc2c3c(c(=O)oc2c1)CCCC3 (stereo not drawn)
45	1%	CC(C)Cn1c(N)c(C(=O)COC(=O)COc2cccc(C(F)(F)F)c2)c(=O)n(C)c1=O
46	-16%	CCOc1cccc(CNCCO)c1OCc1ccc(Cl)cc1
47	3%	Cc1ccc(C(=O)Nc2ccccc2C(=O)OCc2cc(=O)n3nc(C4CC4)sc3n2)cc1
48	-5%	Cc1ccc(-c2cc(C(F)F)n3ncc(C(=O)N4CCN(c5cccc(C)c5C)CC4)c3n2)cc1
49	6%	CC(C)Cn1c(SC(C)C(=O)Nc2ccc3c(c2)OCCO3)nc2ccccc2c1=O (stereo not drawn)
50	14%	c1ccc2c(c1)CCN(c1ncnc3c1[nH]c1ccccc13)C2
51	-11%	CC(C)(C)NC(=O)COC(=O)CCC(=O)c1ccc(Cl)cc1
52	-3%	CC1(C)OC2CCN3C(C(O)COS3(=O)=O)C2O1 (stereo not drawn)
53	10%	CCn1cc(/C=N/NS(=O)(=O)c2ccc(OC)cc2)c(C)n1
54	0%	O=C(NC1CCCC1)c1ccc(CS(=O)(=O)c2ccc(Br)cc2)o1
55	10%	Cc1ccc(C)c(N2CCN(c3ncnc4c3nc3n4CCCC3)CC2)c1
56	21%	CC(C)(C)OC(=O)N(CCc1ccccc1)Cc1ccccc1OCc1ccc(NC(=O)C2CCCC2)cc1
57	-18%	S=c1nc(-c2ccccc2Cl)n(Cc2cccnc2)c2c1CCCC2
58	4%	CCOC(=O)CSc1nc2cc3c(cc2c(=O)n1CCCC(=O)NCCc1ccc(OC)c(OC)c1)OCO3
59	-9%	CCN(C[C@H]1N[C@@](Cc2ccccc2)(C(=O)OC)[C@H]2C(=O)N(Cc3ccccc3)C(=O)[C@@H]12)C(=O)Nc1ccc(Cl)cc1
60	6%	O=C(Cc1ccccc1)c1c[nH]c(C(=O)C(Cl)(Cl)Cl)c1
61	-10%	CC(C)(C)c1ccc(C(=O)NNC(=O)Cc2cccc3ccccc23)cc1
62	27%	O=[N+]([O-])c1cccc(/C=C/c2ccc3cccc(O)c3n2)c1
63	-2%	O=C(Cn1cnc2ccccc21)Nc1ccc2c(c1)OCCCO2
64	-10%	CCOc1ccc(N(CC(=O)O)S(=O)(=O)c2cccnc2)cc1

New compounds follow
nr	VDR inhibitor	mol
65	-17%	O=C(COc1nsnc1N1CCOCC1)N/N=C/c1ccccc1O
66	-20%	O=c1oc2ccccc2c(O)c1C=Nc1cccnc1
67	4%	CC(C)c1nc(-c2ccccn2)no1
68	-10%	Cc1ccc(C(=O)NNC(=O)CSc2nnc(C3CC3)n2C)cc1
69	-7%	O=C(c1cc(F)ccc1F)C1CCCN(C(=O)CCCN2CCCCC2=O)C1 (stereo not drawn)
70	-17%	Nc1[nH]nc2nc(-c3ccccc3)[nH]c(=O)c12
71	-9%	Cc1cccc(CC(=O)NCC2CCCCC2)c1
72	-1%	COc1cccc2sc(=NC(=O)CS(=O)(=O)c3ccc(F)cc3)n(C)c12
73	-1%	COc1ccccc1OCCCC(=O)Nc1ccc(N2CCOCC2)cc1
74	19%	COc1cccc(/C=C2/Sc3ccc(C(=O)NCCCN4CCCC4)cc3NC2=O)c1
75	-2%	Cc1ccnc(N2CCC(C(=O)NCc3ccc(F)cc3)CC2)n1
76	-28%	CCc1ccccc1NC(=O)N1C2CCCC1CC(NC(=O)C(C)(C)C)C2 (stereo not drawn)
77	4%	O=C(CSc1nnc(NC(=O)c2ccco2)s1)NC1CCCC1
78	-11%	Cc1cccnc1NC(=O)C1CCCN1S(=O)(=O)c1ccc(Cl)cc1 (stereo not drawn)
79	-2%	COc1ccccc1CNC(=O)COC(=O)Cc1c(Cl)cccc1Cl
80	-5%	O=[n+]1ccn([O-])c2ccccc21
81	?	O=C(Cn1c2c(sc1=O)C1c3ccccc3OCC1CS2)Nc1ccc(Cl)c(Cl)c1 (stereo not drawn)
82	19%	COc1ccc(C)cc1S(=O)(=O)N1c2ccc(C)cc2C2CN(C)CCC21 (stereo not drawn)
83	-3%	CCNC(=O)CCn1nc(-c2ccc(C)cc2)c2ccccc2c1=O
84	-1%	Oc1cnc2ccccc2c1CN1CCOCC1
85	-12%	O=C(CNc1cccc2ccccc12)N/N=C/c1cccc(Oc2ccccc2)c1
86	-5%	CCN(C(=O)c1cc(Cl)ccc1OC)c1ccccc1C
87	-1%	CCC(C)NC(=O)C1CCN(S(=O)(=O)c2ccc3nc4c(c(C(=O)O)c3c2)CCCCC4)CC1 (stereo not drawn)
88	4%	COc1ccccc1CNC(=O)CSc1nc(=O)[nH]c2c1CCCC2

Fetched by compound from above, 4 records:
nr	VDR inhibitor	mol
84	-1%	Oc1cnc2ccccc2c1CN1CCOCC1
86	-5%	CCN(C(=O)c1cc(Cl)ccc1OC)c1ccccc1C
88	4%	COc1ccccc1CNC(=O)CSc1nc(=O)[nH]c2c1CCCC2
85	-12%	O=C(CNc1cccc2ccccc12)N/N=C/c1cccc(Oc2ccccc2)c1

(cont.)
nr	VDR inhibitor	mol
89	-22%	Cn1nc(C(=O)Nc2ccccc2Cl)cc1C(=O)Nc1ccccc1Cl
90	-2%	COCCC(=O)Nc1c(-c2ccccc2)c2cc(Br)ccc2[nH]c1=O
91	-6%	CCc1nc(C)ccc1OCC(=O)N(CC)CC
92	-10%	Cc1nc(C(=O)Nc2ccccc2)sc1C1(C)CC(c2cccc([N+](=O)[O-])c2)=NO1 (stereo not drawn)
93	1%	O=C(NC1CCC(O)CC1)c1ccccc1OCc1ccc(F)cc1 (stereo not drawn)
94	-7%	COc1ccc(-c2cc(-c3c(O)c(OC)c4occc4c3OC)[nH]n2)cc1
95	-1%&14%	O=c1c2cc(O)c(O)cc2oc2cc(O)c(C3OC(CO)C(O)C(O)C3O)c(O)c12 (stereo not drawn)
96	-12%	CC(C)(C)CC(=O)NC(=S)NCc1ccco1
97	1%	COCCCn1[nH]c2c3c(ccc2c1=O)C(=O)c1ccccc1C3=O
98	-13%	C=C[C@H](CC(C)C)N(Cc1ccccc1)S(=O)(=O)N(Cc1ccc(OC)cc1)[C@H](C=C)CC(C)C
99	29%	CCOc1cc(C(=O)N[C@@H](C)C(=O)N2CCC3(CC2)NCCc2[nH]cnc23)cc(OCC)c1OCC
100	1%	COC(=O)c1sc(N2CCN(Cc3ccccc3)CC2)nc1N
101	-6%	Cc1cc(=O)[nH]c(Nc2cccc(Cl)c2C)n1
102	?	O=C(Cn1c(=O)c2c3c(sc2n(Cc2ccccc2)c1=O)CCCC3)NCCO
103	-10%	O=C(NCc1ccco1)c1ccc(NC(=O)C2COc3ccccc3O2)cc1 (stereo not drawn)
104	6%	CCC(=O)NCC(c1ccc2c(c1)OCO2)N1CCN(c2ccccc2)CC1 (stereo not drawn)

Ordered by heavy-atom count (highest first): some entries from above.
nr	VDR inhibitor	mol
99	29%	CCOc1cc(C(=O)N[C@@H](C)C(=O)N2CCC3(CC2)NCCc2[nH]cnc23)cc(OCC)c1OCC
98	-13%	C=C[C@H](CC(C)C)N(Cc1ccccc1)S(=O)(=O)N(Cc1ccc(OC)cc1)[C@H](C=C)CC(C)C
102	?	O=C(Cn1c(=O)c2c3c(sc2n(Cc2ccccc2)c1=O)CCCC3)NCCO
103	-10%	O=C(NCc1ccco1)c1ccc(NC(=O)C2COc3ccccc3O2)cc1 (stereo not drawn)
97	1%	COCCCn1[nH]c2c3c(ccc2c1=O)C(=O)c1ccccc1C3=O
100	1%	COC(=O)c1sc(N2CCN(Cc3ccccc3)CC2)nc1N

Further compounds
nr	VDR inhibitor	mol
105	13%	CC(=O)Nc1ccc(NC=C(C#N)C#N)cc1
106	-4%	CC(=O)/C(=N\Nc1ccccc1Cl)Sc1nnc(-c2ccccc2)n1-c1ccccc1
107	0%	CC(C)Oc1ccc(C(=O)N2CC(=O)Nc3ccc(F)cc3C2c2ccc(F)cc2)cc1 (stereo not drawn)
108	-8%	COc1ccc(NC(=O)C2CCCCN2S(=O)(=O)c2ccc(F)cc2)c(OC)c1 (stereo not drawn)
109	0%	Cc1cccc(-c2nc(-c3ccc4c(c3)[nH]c(=O)n4C)no2)c1
110	-19%	CC(OC(=O)Cc1n[nH]c(=O)c2ccccc12)C(=O)Nc1cccc([N+](=O)[O-])c1 (stereo not drawn)
111	4%	CSCCC(NS(=O)(=O)c1cccs1)C(=O)NCc1ccc(C)cc1 (stereo not drawn)
112	6%	CN(C(=O)CSc1nnc(Nc2ccccc2)s1)C1CCS(=O)(=O)C1 (stereo not drawn)
113	-2%	COc1ccc(CC(=O)Nc2ccc(/C(C)=N/NC(=O)c3cccc([N+](=O)[O-])c3)cc2)cc1
114	16%&6%	Cc1cccc(C(=O)Nc2nnc(S(=O)(=O)N3CCC(C)CC3)s2)c1
115	-27%	COC(=O)c1ccccc1NC(=O)CNc1cc(OC)c(OC)cc1C
116	-11%	COc1cccc(-n2nc(-c3ccnn3-c3cccc(Cl)c3)c(=O)n(C)c2=O)c1
117	-9%	CCOC(=O)c1ccccc1OCc1cc(/C=N/NC(=O)c2ccncc2)ccc1OC
118	16%	C=CCn1c(C(CC)CC)nc2ccccc21
119	13%	Cc1sc(-c2c(C#N)c(N)nc3c2CCCCCC3)cc1[N+](=O)[O-]
120	20%	CCOC(=O)Cc1csc(/C(=N/O)C(N)=O)n1
121	-7%	Cc1cc(C(=O)NN)c(Cl)cc1Cl
122	-12%	COc1ccc(-c2oc3ncn4nc(Cc5ccccc5)nc4c3c2-c2ccc(OC)cc2)cc1
123	15%	CCOc1ccc(OCC)c(NC(=O)C2CCN(c3nn4c(=O)cc(C)nc4s3)CC2)c1
124	-9%	Cc1ccc2c(c1)C(=O)C(=O)N2Cc1ccc(OCCC(C)C)cc1
125	-10%	CC(c1ccon1)N(C)Cc1c(C(=O)N(C)Cc2ccccc2)nc2ccccn12 (stereo not drawn)
